MARV entry inh: inhibitors of Marburg virus binding or cell entry; Marburg virus pseudotyped entry inhibition, cell reporter; control for the full effect not named in the record; about a third of the inactives were read at about 46 µM; Potency, µM (titrated, usually from 37.8 µM), for the others: at the highest dose activity change, negative = inhibition, usual class: inhibitors; 1.8% of 300,000 active; AID 540276; active = well fitted inhibition curve with a large enough effect; inconclusive = small, poorly fitted or top-dose-only effect, or effect the other way; inactive = flat fitted curve, though single readings scatter; tested in HEK293 cells; about a fifth of its hits are not listed in these tables; note: % is set by controls: 0 for no effect and ±100 for the full control effect; luciferase read-out
StopGo reporter: FMDV 2A StopGo reporter, luciferase signal. human cells with a luciferase reporter of 2A StopGo recoding; control for the full effect not named in the record. Potency, µM (doses to about 57.9 µM), for the others: top-dose signal change, negative = less light. 1.2% of 410,000 active; active = well fitted falling curve with a large enough effect; inconclusive = small, poorly fitted or top-dose-only effect; inactive = no such curve, though single readings can be large or run the other way; tested in HEK293T cells; note: % is set by controls: 0 for no effect and ±100 for the full control effect; nearly all actives have a fitted effect of over 45% in size; luciferase light after 4 h
NS1 inh: inhibitors of influenza NS1 protein function. S. cerevisiae slowed by influenza A NS1, growth recovery by OD600. Potency, µM (top dose mostly 46.1 µM), inactives show at the highest dose activity, positive = more growth. 0.4% of 270,000 active. AID 2326; active means well fitted rising curve with a large enough effect; inconclusive means small, poorly fitted or top-dose-only effect; inactive means no such curve, though single readings can be large or run the other way; note: nearly all actives have a fitted effect of over 50% in size
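Compounds were scored for reversing the slow growth caused by influenza A NS1 in S. cerevisiae, measured by optical density at 600 nm. Assay medium contained 2% galactose at pH 6.0; NS1-free yeast of the same strain were the positive control.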
SARS PLpro yeast: inhibitors of SARS-CoV papain-like protease in yeast | S. cerevisiae expressing SARS-CoV PLpro, growth rescue; control for the full effect not named in the record | 0.19% of 330,000 active | Potency, µM (top dose mostly 32.9 µM), for the others: at the top dose activity, positive = growth rescue; active means well fitted rising curve with a large enough effect; inconclusive means small, poorly fitted or top-dose-only effect; inactive means no such curve, though single readings can be large or run the other way; note: 0% is about no effect; nearly all actives have a fitted effect of over 55% in size; growth read by luminescence after 48 h
LASV entry inh: Lassa virus entry inhibition | 1.2% of 300,000 active | Potency, µM (top dose mostly 37.9 µM), for the others: at the highest dose activity change, negative = inhibition, usual class: inhibitors | Lassa virus pseudotype entry inhibition, cell reporter; control for the full effect not named in the record; active means well fitted inhibition curve with a large enough effect; inconclusive means small, poorly fitted or top-dose-only effect, or effect the other way; inactive means flat fitted curve, though single readings scatter; tested in HEK293 cells; note: % is set by controls: 0 for no effect and ±100 for the full control effect; nearly all actives have a fitted effect of over 50% in size; luciferase read-out
RE007 growth inh: less growth of the S. pombe RE007 Vpr strain; S. pombe RE007 Vpr strain, BacTiter-Glo ATP luminescence, 24 h; control for the full effect not named in the record; Potency, µM (highest dose often 92.2 µM), inactives show at the top dose activity change, negative = less growth; 0.21% of 360,000 active; active = well fitted falling curve with a large enough effect; inconclusive = small, poorly fitted or top-dose-only effect; inactive = no such curve, though single readings can be large or run the other way;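 note: % is set by controls: 0 for no effect and ±100 for the full control effect; nearly all actives have a fitted effect of over 50% in size; the assay follows cell death caused by Vpr and the record does not say whether a fall means rescue or toxicity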
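Fission yeast RE007 carrying one integrated HIV-1 vpr copy, seeded at OD 0.01 in PMG+AL medium with 23 nL pinned compound. Grown 24 h at 30 degrees; viability read by BacTiter-Glo luminescence after 5 min.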
Cruzain Triton: blocks cruzain activity in presence of Triton detergent | purified cruzain, Z-FR-AMC fluorescence, 0.01% Triton | Potency, µM, inactives show max response, negative = inhibition, actives largely listed as inhibitors | 0.43% of 200,000 active;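 note: plate controls were neutral wells for no effect and buffer without enzyme for full effect; nearly all actives have a fitted effect of over 40% in size; top concentration of the series not given in the record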
Target sequence (P25779 123-467 limits assumed): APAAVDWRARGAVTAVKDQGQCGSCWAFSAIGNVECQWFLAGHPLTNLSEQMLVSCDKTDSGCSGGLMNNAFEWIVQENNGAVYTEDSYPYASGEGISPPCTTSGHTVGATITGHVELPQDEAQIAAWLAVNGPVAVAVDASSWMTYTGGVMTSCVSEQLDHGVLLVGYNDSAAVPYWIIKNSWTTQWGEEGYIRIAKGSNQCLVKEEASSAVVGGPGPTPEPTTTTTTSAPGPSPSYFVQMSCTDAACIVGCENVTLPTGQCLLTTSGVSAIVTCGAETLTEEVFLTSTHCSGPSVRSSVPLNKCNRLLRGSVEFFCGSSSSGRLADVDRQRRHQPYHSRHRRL
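In this qHTS format, compounds are incubated with 1.5 nM cruzain for 15 min at room temperature before 2 uM Z-FR-AMC is added. Release of AMC is followed at 360/450 nm, and progress is taken as the 60 s fluorescence difference.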
Cruzain inh noDet: inhibitors of Trypanosoma cruzi cruzain without detergent; purified cruzain, Z-FR-AMC fluorescence, no detergent; Potency, µM, for the others: max response, negative = inhibition, most hits filed as inhibitors; 2.3% of 200,000 active; AID 1476;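 note: plate controls were enzyme without inhibitor for no effect and buffer without enzyme for full effect; nearly all actives have a fitted effect of over 40% in size; top concentration of the series not given in the record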
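Detergent-free condition (0.00005% Triton X-100) in acetate buffer pH 5.5 with DTT. 1.5 nM enzyme and compound were pre-mixed 15 min, then 2 uM Z-FR-AMC substrate added; reaction progress from fluorescence change between first and third reads (60 s).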
The depositor's hits bear a star; ? = inconclusive; nt = no result given; & = joins results of further samples; [ ] = dose if it differs, or a comment. Unless noted, calls come from the whole dose curve; as a rule, active = well fitted curve in the direction sought with a large enough effect; inconclusive = small, poorly fitted or top-dose-only effect, or another doubt; inactive = no such curve, though single readings can be large; an effect the other way counts as inactive or inconclusive. Potency is the fitted concentration of half-maximal effect.

SMILES | MARV entry inh | StopGo reporter | NS1 inh | SARS PLpro yeast | LASV entry inh | RE007 growth inh | Cruzain Triton | Cruzain inh noDet
Cc1ccc(-c2ccc(=O)n(CC(=O)N3CCN(c4cccc(C)c4)C(C)C3)n2)cc1 (stereo not drawn) | 16.2% | nt | -62.9% | -6.1% | ? | -1.8% | -3.2% | ?
CSCc1ccc(C(=O)N2CCCC(Nc3ccc(F)cc3)C2)o1 (stereo not drawn) | -3.9%[46.1 µM] | -24.7% | 0.2% | -9.1% | -2.3%[46.1 µM] | -2.9% | nt | nt
O=C(CN1C(=O)C2CC=CCC2C1=O)NCc1ccc2c(c1)OCO2 (stereo not drawn) | 0.1% | ? | ? | 3.7% | -6.7% | -2.2% | 3.0% | -0.9%
O=C1NC(=O)C2(CCN(c3ccccc3)CC2)C(=O)N1 | 11.7% | -12.2% | nt | nt | 8.8% | 7.6% | nt | nt
O=C(Nc1ccc(S(=O)(=O)N2CCC(c3nc4ccccc4s3)CC2)cc1)c1ccccc1 | -4.9%[46.1 µM] | -29.5% | nt | nt | 1.4%[46.1 µM] | nt | -5.7% | -7.7%
CC(=O)c1nc(N2C(=O)CC(Cc3cc(C)cc(C)c3)C2=O)sc1C (stereo not drawn) | -2.8% | -22.5% | -11.6% | 0.0% | 0.5% | 28.0% | -3.3% | 9.7%
O=C(O)CC(C(=O)O)c1cn(Cc2ccccc2)c2ccccc12 (stereo not drawn) | 6.1% | -9.6% | 1.1% | 0.2% | 5.4% | 11.9% | -6.9% | -18.0%
Oc1c(Cl)c(Cl)c(Cl)c(Cl)c1Cl | nt | ? | nt | nt | nt | ? | -18.7%&-13.0% | -1.9%&-1.2%
CC(=O)Oc1ccc(-c2cccc(C(=O)NCC(=O)O)c2)cc1 | 25.2% | 11.8% | 3.4% | 2.2% | ? | -8.4% | -0.3% | -6.8%
Cc1noc(/C=C/N(C)C)c1S(=O)(=O)N1CCCC(C(=O)NC(C)c2ccccc2)C1 (stereo not drawn) | -9.5% | 32.6%[activator] | 1.78µM* | 17.2% | -2.9% | 7.0% | -1.1% | 26.4%
Cc1c(NC(=O)CSc2nncn2-c2ccccc2)c(=O)n(-c2ccccc2)n1C | 9.5% | -11.3% | nt | -3.4% | -2.9%[46.1 µM] | 5.5% | nt | nt
C=CCc1cc(/C=N/n2cnnc2)cc(OCC)c1O | 8.3% | -9.8% | -8.6% | 2.5% | 4.8% | 21.3% | -2.0% | 5.9%
COc1cc2c(cc1OC)C1C(=O)c3ccc4c(c3OC1CO2)CC(C(C)C)O4 (stereo not drawn) | 3.55µM* | ? | nt | nt | nt | 15.3% | nt | nt
COc1cccc(NC(=O)CN2C(=O)COc3ccc(S(=O)(=O)N4CCOCC4)cc32)c1 | nt | -8.8%&-5.1% | 6.0% | -3.8% | -1.7%[46.1 µM] | 8.7% | -2.1% | -2.8%
Cc1cc(C)n(Cc2cc(C(=O)O)c3ccccc3n2)n1 | 11.7%[46.1 µM] | 14.9% | nt | 0.9% | -10.0%[46.1 µM] | 10.0% | nt | nt
CC(=O)Nc1ccccc1NC(=O)C/C(C)=N/NC(=O)c1ccncc1 | -2.7% | -17.4% | 1.1% | 0.9% | 10.7% | -3.3% | nt | nt
O=C(COC(=O)c1ccccn1)Nc1cccnc1Cl | -19.4% | -15.4% | nt | -1.3% | -1.4% | 0.1% | nt | nt
O=C(CCNC(=O)Cn1ccc2ccccc2c1=O)NCc1ccc(F)cc1Cl | 4.1%[46.1 µM] | -18.0% | nt | -0.5% | -19.1%[46.1 µM] | 4.0% | nt | nt
CCCC(CCC)C(=O)Nc1cccc(-c2nc3cccnc3s2)c1 | 14.1%[46.1 µM] | -21.5% | nt | nt | -15.5%[46.1 µM] | nt | -5.1% | -5.6%
COc1cc(OC)cc(C(=O)Nc2ccc(Nc3ccccc3)cc2)c1 | nt | 43.2%[activator] | -32.7% | -16.4% | nt | ? | nt | nt
Cc1cccn2c(=O)c3cc(C(=O)NC4CCCC4)c(=N)n(CCCN4CCOCC4)c3nc12 | 3.55µM* | -8.0% | 11.8% | -1.6% | -11.9%[46.1 µM] | -9.0% | nt | nt
CCn1c(-c2nn(C)c(C)c2Cl)n[nH]c1=S | 0.8% | 6.9% | 2.7% | 7.6% | -2.7% | 10.3% | -1.4% | 3.5%
Cc1ccc(Cl)cc1NCc1nnc2n1CCCCC2 | nt | 21.2% | nt | nt | 0.8%[46.1 µM] | nt | 1.8% | -0.5%
CCC(=O)c1cc2c(cc1NC(=O)c1ccccc1F)OCCO2 | 6.5%[46.1 µM] | -11.8% | nt | nt | -20.9%[46.1 µM] | nt | -1.6% | -8.0%
COc1ccc(-n2nnnc2SCC(N)=O)cc1 | -2.1% | 2.7% | -3.3% | 0.6% | 20.8% | -1.0% | -0.1% | 2.4%
Cc1ccc(F)cc1S(=O)(=O)NCc1ccc(N2CCN(C)CC2)cc1 | 0.4%[14.2 µM] | 16.2% | 0.3% | 1.8% | -0.6% | 0.9% | nt | nt
O=C(COC(=O)c1ccc(S(=O)(=O)N2CCCC2)cc1)Nc1ccc(N2CCOCC2)cc1 | 2.3%[46.1 µM] | 2.3% | nt | -0.1% | 15.7% | -10.8% | nt | nt
Nc1c(C(=O)Nc2ccccc2F)sc2nc(-c3ccco3)ccc12 | ? | ? | 12.1% | 0.2% | 78.4%[14.3 µM] | -12.8% | -0.5% | -22.4%
CCCCCn1nc(C(=O)N(CC)c2c(N)n(CCCC)c(=O)[nH]c2=O)c2ccccc2c1=O | -0.6% | -3.3% | nt | 2.2% | 6.8% | -2.6% | nt | nt
CC1CCc2cc(F)ccc2N1C(=O)c1cnc2sccn2c1=O (stereo not drawn) | nt | -6.1% | 4.3% | -7.9% | nt | 9.0% | -2.2% | 1.7%
COc1ccc(CNC(=O)c2ccc3nc(CCc4ccccc4)oc3c2)cc1OC | nt | ? | nt | nt | -29.8%[46.1 µM] | nt | -3.7% | ?
CCOc1ccc(N(C)Cc2cc(=O)oc3ccc(OCC)cc23)cc1 | ? | -18.7% | 2.2% | -4.5% | ? | 41.1% | nt | nt
O=C(CCC1CCCN(c2ncccn2)C1)NCc1ccccc1F (stereo not drawn) | nt | -4.7% | -2.8% | -1.1% | nt | -4.4% | nt | nt
CC(=O)c1cccc(S(=O)(=O)N2CCC(n3nnc4cc(F)ccc43)CC2)c1 | 26.1%&26.1% | -14.5% | -21.9% | 3.6% | -5.9% | -6.9% | -0.7% | -8.9%
CCOc1cc(C(=O)NC)cc(OCC)c1OCC | 7.7% | nt | 2.1% | -0.8% | 4.4% | 5.2% | 5.3% | 3.3%
Cc1ccnc(SCC(=O)n2c3c(c4ccccc42)CC(C)CC3)n1 (stereo not drawn) | 6.9% | 13.3% | 19.2% | 0.9% | -15.0% | 10.8% | -0.8% | 0.4%
S=C(Nc1ccc(Cl)cc1)c1nc2ccccc2s1 | ? | 10.5% | 5.5% | -4.7% | 10.7% | 1.9% | -5.3% | -1.5%
O=C1CCC(=O)c2ccc3c4c(ccc1c24)CC3 | ? | -14.3% | nt | nt | 22.2%[46.1 µM] | -24.4% | nt | nt
CCCCC(=O)NNC(=O)c1c(O)c2ccccc2[nH]c1=O | nt | 38.5%[activator] | -1.6% | 0.1% | nt | -4.5% | nt | nt
Cc1ccc(-n2cc(CNC(C)c3cnn(C)c3C)c(-c3ccc(F)cc3)n2)cc1 (stereo not drawn) | nt | -20.7% | -0.1% | 0.2% | nt | 4.0% | nt | nt
COc1cc(F)c(S(=O)(=O)Nc2c(C)n(C)n(-c3ccccc3)c2=O)cc1OC | nt | -12.7% | nt | nt | 0.5%[46.1 µM] | nt | 0.9% | 9.7%
O=C(c1ccccc1)N1CCN(C(=O)c2ccc([N+](=O)[O-])cc2)CC1 | 1.3% | -4.2% | 6.8% | 25.1% | 1.1% | -0.4% | -2.6% | -5.3%
O=C(CSc1ncnc2c1oc1ccccc12)NCc1ccco1 | -4.7% | nt | -1.6% | -6.1% | 0.2% | -9.2% | -6.4% | 8.9%
COc1ccc(-n2c(SCC(=O)N3CCc4ccccc43)nc3c([nH]c4ccccc43)c2=O)cc1 | nt | -16.3% | nt | nt | 12.6%[46.1 µM] | nt | 0.6% | 8.3%
O=C(CSc1ccccc1)NCCCc1ccccc1 | 9.4%[46.1 µM] | 11.4% | nt | -0.1% | 2.8%[46.1 µM] | -10.5% | nt | nt
Nc1nonc1-n1nnc(C(=O)N/N=C/c2ccc(O)cc2)c1COc1ccc(F)cc1 | nt | ? | 5.9% | 0.3% | nt | 22.5% | nt | nt
CN(C)C(=O)CCc1ccc2c3c([nH]c2c1)[C@]1(CCc2ccccc2)[C@@H](C(=O)N2CCCCC2)C[C@H](CC(=O)NCCCn2ccnc2)C(=O)N1CC3 | 1.0% | 93.9%[activator] | nt | -21.6% | nt | 3.4% | nt | nt
CC(=O)Nc1ccc(S(=O)(=O)N[C@@H](C)C(=O)Nc2ccc(N3CCOCC3)cc2)cc1 | ? | -11.9% | 3.7% | 5.1% | ? | 15.8% | 2.0% | -1.5%
CCOC(=O)C1(Cc2ccccc2C)CCCN(C(=O)c2cc(C3CC3)[nH]n2)C1 (stereo not drawn) | 8.8%[46.1 µM] | -3.5% | -5.2% | -0.3% | -25.9% | 1.4% | nt | nt
CC(NC(=O)C(=O)N1CCCCC1)C(c1cccs1)N1CCN(c2ccccc2F)CC1 (stereo not drawn) | nt | -20.5% | -14.6% | 0.8% | nt | -4.0% | nt | nt
O=C(COC(=O)CCC1CCCC1)Nc1ccccc1Sc1ccccc1 | -1.2%[46.1 µM] | -4.1% | 6.9% | -14.3% | 4.9%[46.1 µM] | 2.4% | -2.1% | -7.2%
Cc1cc(-c2ccc(F)cc2)nc2cc(C(N)=O)nn12 | 0.5% | 6.8% | 3.2% | -6.6% | 2.4% | 0.9% | 2.3% | -1.0%
CCOC(=O)N1CCN(C2CC(=O)N(c3ccc(F)cc3)C2=O)CC1 (stereo not drawn) | -0.6% | nt | 4.9% | -22.2% | -2.5% | -20.5% | 2.4% | 12.6%
CCn1nc(C(=O)OCC(=O)N2CC(=O)Nc3ccccc32)c2ccccc2c1=O | 1.4%[46.1 µM] | 1.1% | nt | 0.1% | -8.9% | -2.4% | nt | nt

Screening data from PubChem BioAssay.
